# Source: PubChem (National Center for Advancing Translational Sciences (NCATS))
# SmPrx2 inh: blocks S. mansoni peroxiredoxin 2 enzymatic activity; hit rate 0.07% among 65,000; Potency, µM; AID 448; S. mansoni Prx2 activity coupled to TGR/GSH (TGR is thioredoxin glutathione reductase), NADPH fluorescence loss, qHTS; some inactives read as strong as hits; active means full or partial inhibition curve with a strong effect at the top dose; inconclusive means weaker partial or single-point curve; inactive means no accepted curve; note: series up to 57 µM; many of its hits are not listed in these tables
#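 Prx2 activity was followed as the loss of NADPH fluorescence (ex 365/em 450 nm), read every 30 sec for 8 min after H2O2 start. The enzyme mix (50 nM Prx2, 25 nM TGR, GSH, NADPH; pH 7.4 phosphate buffer) was incubated with compound for 15 min at room temperature first.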
# LT uptake inh: inhibitors of anthrax lethal toxin internalization. Cells, anthrax lethal toxin internalization, FRET ratio (460/530). Potency, µM (doses to about 40 µM), for the others: top-dose activity change, negative = inhibition, usual class: inhibitors. hit rate 0.67% among 70,000; active = well fitted falling ratio curve with the 530 nm signal flat; inconclusive = other ratio curves, or a change in one channel alone; inactive = flat curves in the ratio and both channels; the % refers to the ratio; note: % is set by controls: 0 for no effect and ±100 for the full control effect; nearly all actives have a fitted effect of over 50% in size; tested in ME-180 cells; beta-lactamase reporter
# * = called active by the depositor; ? = inconclusive; / = no result given; [ ] = dose if it differs, or a comment. Potency is the fitted concentration of half-maximal effect. Not all compounds are listed; the hit share may differ from the screen's.
SMILES	SmPrx2 inh	LT uptake inh
CC(=NC1CCCCC1)c1ccccc1O	>57	-3%[8 µM]
COc1ccc(OCC(=O)Nc2ccc(N3CCOCC3)cc2)cc1	/	11%
O=C1CC(N2CCN(c3ccc(Cl)c(Cl)c3)CC2)C(=O)N1 (stereo not given)	>57	?
NC(=O)N1c2ccccc2CC(=O)c2ccccc21	>57	-12%
COCCN(CCOC)C(=O)c1c[nH]c2ccc(S(=O)(=O)N(C)c3ccc(F)cc3)cc2c1=O	>57	6%
COCCNC(=O)CN(c1ccc(C)cc1)S(=O)(=O)c1ccc(SC)cc1	/	-15%
Cc1nc2cnc(Nc3ccccc3)nc2n(CCc2ccccc2)c1=O	>57	1%
COC(=O)c1c(NC(=O)CSc2nnnn2-c2ccccc2)sc2c1CCCC2	>57	-26%
Cc1cc(NC(=O)CSc2nnc(Cc3ccccc3)o2)no1	>57	-1%
Cn1c(SCc2ccc(C#N)cc2)nnc1-c1cccc(Cl)c1	>57	-2%
CSc1nc2ccc(NS(=O)(=O)c3ccc(Cl)s3)cc2s1	>57	-2%
COc1ccc(NC(=O)N(CCO)Cc2cc3c(C)cc(C)cc3[nH]c2=O)cc1	>57	-1%
O=C(c1csnn1)N1CCC2(CC1)CN(c1ccncc1)C2	>57	8%
CNC(=O)NCC12CC3CC(CC(C3)C1)C2	>57	-6%
COc1cc(OC)cc(C(=O)NCC(=O)OC2CCOC2=O)c1 (stereo not given)	>57	24%
CC(=O)Nc1ccc(S(=O)(=O)Nc2nc3ccccc3nc2N2CCCC2)cc1	>57	/
Cc1cc(C(=O)O)c(=O)[nH]c1C	>57	9%
O=C(O)CNC(=O)c1ccccc1NC(=O)c1ccco1	>57	-6%
Oc1ccc(Cl)cc1/C=N/c1nccs1	>57	2%
CN(Cc1ccccc1)S(=O)(=O)c1ccc2[nH]cc(C(=O)NCC3CCCO3)c(=O)c2c1 (stereo not given)	>57	0%
COc1ccc(C(=O)N2CCN(S(=O)(=O)N3CCOCC3)CC2)cc1OC	>57	6%
COc1ccc2cc(CN(Cc3ccco3)C(c3nnnn3C3CCCCC3)C(C)C)c(=O)[nH]c2c1 (stereo not given)	>57	-4%
Cc1ccc(CS(=O)(=O)CCC(=O)NCc2ccc3c(c2)OCO3)cc1	>57	?
Cc1ccc2c(CC(=O)Nc3ccc(N4CCN(C)CC4)cc3C)coc2c1	>57	-18%
COc1ccccc1NC(=O)c1ccc(NS(=O)(=O)c2c(C)noc2C)cc1	?	?
O=C(Cn1c(-c2ccco2)nc2ccccc21)N1CCCCC1	>57	2%
CC1CCCN(C(c2ccccc2)c2sc3ncnn3c2O)C1 (stereo not given)	>57	13%
Cc1cc(Nc2cccc(Cl)c2)n2ncnc2n1	>57	5%
COc1ccc(C(=O)COC(=O)CCCn2c(=O)oc3ccccc32)cc1	>57	-7%
Cc1nc(Nc2nc(-c3ccccc3)cc(=O)[nH]2)nc2ccccc12	>57	0%

# Later entries:
SMILES	SmPrx2 inh	LT uptake inh
O=C(Nc1c(F)cc(F)cc1Br)c1cc2nc(C(F)F)cc(C(F)F)n2n1	>57	-16%
CCCCNC(=O)CCCn1c(=S)[nH]c2cc3c(cc2c1=O)OCO3	>57	1%
CC(C)N[C@@H](C)Cc1ccc(I)cc1	>57	-4%
CCCCC(CC)COC(=O)c1ccc(C(=O)OCC(CC)CCCC)c(C(=O)OCC(CC)CCCC)c1 (stereo not given)	/	-10%
CCN(CCO)Cc1cn[nH]c1-c1ccc(C)c(C)c1	>57	?
Cc1noc(C)c1C(=O)Nc1sc(C)c(-c2ccccc2)c1C#N	>57	12%
Cn1c(NC(=O)c2ccccc2C(F)(F)F)cc(=O)n(C)c1=O	>57	10%
COc1ccc(-n2c(Cc3cccs3)nnc2SCC(=O)Nc2ccc3c(c2)OCCO3)cc1	>57	?
CCc1nnc(NC(=O)CN2CCC(O)(c3ccccc3OC)CC2)s1	>57	2%
CCOC(=O)N1CCC(O)(c2cc(C)c(C)cc2C)CC1	>57	-7%
Cc1ccc(N2CC(C(=O)NC3=NCCS3)CC2=O)cc1 (stereo not given)	>57	5%
CCCCNC(=O)c1cc(-c2ccc(OC)c(OC)c2)on1	>57	1%
CSCC[C@H](NC(=O)NCCC1=CCCCC1)C(=O)O	>57	-11%
O=C(Nc1nccs1)c1ccc(Cl)c(S(=O)(=O)N2CCCCC2)c1	/	11%
COc1ccc(-c2nc3cc(NC(=O)c4ccc5c(c4)OCO5)ccc3o2)cc1	>57	2%
O=C(NC1CCCCC1)C(c1ccccc1)N1CCC2(CC1)OCCO2 (stereo not given)	>57	15%
Cc1ccccc1C(=O)Nc1ccc2nc3n(c(=O)c2c1)CCC3	>57	-8%
CC(=O)c1c(C)nc(-c2ccc(Cl)cc2)nc1NC(=O)C(C)C	>57	8%
N#CC1=C(N)C(C#N)(C#N)C(c2cccnc2)C2COCC=C12 (stereo not given)	>57	-19%
N#CC1=C(N)SC(N)=C(C#N)C1c1cccc(Oc2ccccc2)c1	/	?
CCN1CCC(C(=O)NC2CCCC2)(N(Cc2cccs2)C(=O)Cn2nnc3ccccc32)CC1	>57	6%
COC(=O)C1=C(N)Oc2cc(C)n(CCCn3ccnc3)c(=O)c2C1c1ccc(Cl)cc1 (stereo not given)	>57	?
COc1ccc(-c2noc(Cc3cccs3)n2)cc1	/	-5%
COC(=O)c1sccc1NC(=O)c1ccc(Br)o1	>57	-1%
Cn1nnc2cc(C(=O)N3CCC(c4ccccc4)C3)ccc21 (stereo not given)	>57	18%
COc1cccc(OC)c1C(=O)Nc1ccc2c(c1)OCCO2	/	?
COc1ccc(-c2ccnc(SCC(=O)N3CCOCC3)n2)cc1	>57	-7%
Cc1nc(CCNC(=O)c2ccccc2)cs1	>57	5%
CC(=O)c1c(N2CCN(C(=O)C3CCCO3)CC2)nc(=S)n(-c2ccccc2)c1C (stereo not given)	>57	7%
O=C(CN1CCN(c2ccccn2)CC1)Nc1ccc(OCc2ccccc2)cc1	>57	-4%

# Additional results.
SMILES	SmPrx2 inh	LT uptake inh
O=C(CN(C(=O)c1ccc2c(c1)OCCO2)c1ccccc1)NCC1CCCO1 (stereo not given)	>57	4%
Nc1nc2c(nc(Br)n2[C@@H]2O[C@H]3COP(=O)(O)O[C@H]3[C@@H]2O)c(=O)[nH]1	>57	?
O=C(Nc1ccccc1C(=O)N1CCOCC1)c1cccc(S(=O)(=O)N2CCCC2)c1	>57	3%
CCCNS(=O)(=O)c1ccc(CCC(=O)NCc2ccco2)cc1	>57	0%
CC(=O)NCCNc1nc(-c2cccc(C#N)c2)nc2ccccc12	>57	?
CCC1=C(C)C(N2CCOCC2)=NP(N2CCOCC2)(N2CCOCC2)=N1	>57	14%
O=C(CN1C(=O)C2C3C=CC(C3)C2C1=O)Nc1nc(SCc2ccc(Cl)cc2)n[nH]1 (stereo not given)	>57	-8%
COC1Cc2ccccc2N(C(=O)N2CCN(CCO)CC2)c2ccccc21 (stereo not given)	>57	-6%
Cc1cc(C)n(CC(=O)O)n1	>57	4%
CN1CCN(c2ncc3nc(-c4ccc(Cl)cc4)c(=O)n(C)c3n2)CC1	>57	?
CC(C)C(=O)Nc1cc2c(cc1C(=O)c1ccccc1)OCCO2	>57	9%
Nc1nncn1C(=O)c1cc(Br)ccc1Cl	>57	8%
CCn1c(SCC(=O)Nc2ccc(S(=O)(=O)Nc3ccccn3)cc2)nnc1-c1ccncc1	>57	9%
Cc1onc(-c2ccccc2Cl)c1C(=O)Nc1c(C)n(C)n(-c2ccccc2)c1=O	/	22%
CCOC(=O)Cn1c(=O)oc2cc(S(=O)(=O)N3CCc4ccccc43)ccc21	>57	?
COc1ccc(CNCC(O)COCc2cccs2)cc1 (stereo not given)	>57	-4%
NC[C@@]12CCCC1C1CCC2C1 (stereo not given in full)	>57	-6%
Cc1ccc2c(c1)C1(C(=O)N2C)N2CC3(C)CN1CC(C)(C2)C3=O (stereo not given)	/	-6%
C=CCn1c(N)c(C(=O)NCc2ccco2)sc1=S	>57	0%
NCCc1ccc(S(=O)(=O)O)cc1[N+](=O)[O-]	>57	-1%[8 µM]
O=C(NC1CC1)c1ccc(CSCc2cccc(F)c2)o1	>57	-11%
COc1ccc(N(CC(=O)NC(C)(C)C)S(=O)(=O)c2ccccc2)cc1OC	>57	-12%
O=C(Nc1ccc(-c2nnc(-c3ccccc3)o2)cc1)c1ccc(Br)o1	>57	-3%
COC(=O)c1sccc1NC(=O)c1csc2c1CCCC2	>57	?
CCc1nnc(NC(=O)c2ccc(COc3ccccc3)o2)s1	>57	-9%
COc1cccc(CNC(=O)Cn2cc3c(n2)CCCC3)c1	>57	2%
CCOc1ccc(N2CCCCn3c2nc2c3c(=O)[nH]c(=O)n2C)cc1	>57	-7%
CCN(CC)C(=O)c1n[nH]c(=O)c2ccccc12	>57	9%
Cc1cc(-c2nsc(=O)o2)c(S(C)(=O)=O)s1	>57	-17%
CCCn1c(NCc2cccs2)nc2ccccc21	/	7%

# Looked up above:
# CCOC(=O)Cn1c(=O)oc2cc(S(=O)(=O)N3CCc4ccccc43)ccc21 in SmPrx2 inh is listed with >57
# O=C(Nc1ccc(-c2nnc(-c3ccccc3)o2)cc1)c1ccc(Br)o1 in SmPrx2 inh is listed with >57

# Continuation:
SMILES	SmPrx2 inh	LT uptake inh
CCOC(=O)N1CCN(C(=O)CNS(=O)(=O)c2cccs2)CC1	>57	6%
CC1(C)CC(=O)C=C(Nc2ccc(F)cc2F)C1	/	-7%
CN(C(=O)c1cc2n(n1)C(C(F)(F)F)CC(c1ccco1)N2)c1ccccc1 (stereo not given)	>57	-4%
CC1=CC(C)(C)N(C(=O)c2ccc(F)cc2)c2cc3c(cc21)OCO3	>57	?
CCOC(=O)C(O)(c1ccc(N(CC)S(=O)(=O)c2ccccc2)cc1)C(F)(F)F (stereo not given)	/	7%
CCn1c(SCC(=O)Nc2nccs2)nnc1-c1cc2cccc(OC)c2o1	>57	-12%
COCCNC(=O)c1cc(-c2cccc(OC)c2)on1	>57	6%
C=CCn1c(N)c(C(=O)NCCC2=CCCCC2)sc1=S	>57	-7%
CC(=O)c1ccc(CCCC(=O)O)cc1	/	-13%
COc1ccc2c(c1)[C@]13CCCC[C@@H]1[C@H](C2)NCC3	>57	23%
O=C(NCC1CCCO1)c1ccc2c(c1)N(Cc1ccccc1)C(=O)CS2=O (stereo not given)	>57	-3%
COc1cc(C(=O)Nc2ccc3c(c2)OCCO3)ccc1OC(F)F	>57	-18%
O=C(O)CCc1ccc(-c2ccc(Cl)cc2)n1CC(=O)O	/	?
COc1ccc(S(=O)(=O)N2CCCC2)c(C)c1C	>57	8%
Cc1cc(C)n(-c2ccc(C(=O)C(C#N)c3nc4ccccc4n3C)cc2)n1 (stereo not given)	>57	?
COc1nc(NCC(C)C)nc(Oc2ccc(OCc3ccccc3)nn2)n1	>57	-5%
CCOC(=O)CSc1nnc(CSc2nc(N)c3c(C)c(C)sc3n2)n1-c1ccccc1	/	?
N#CC1=C(SCc2ccccc2)NC(=O)CC1c1ccc(O)cc1 (stereo not given)	/	-3%
CCCOCC1CC2(SC(=Nc3ccc(C)cc3)NC2=O)C(=O)O1 (stereo not given)	>57	-4%
Cc1cccc(N2CCN(C(=O)c3ccc(CS(=O)(=O)c4ccccc4C)o3)CC2C)c1 (stereo not given)	>57	?
CC(C)c1nnc(NC(=O)CC(=O)Nc2ccccc2C(=O)O)s1	>57	-21%
Cc1cccc(OCC2=NS(=O)(=O)c3ccccc3N2)c1	>57	?
COCCn1c(=O)c(-c2ccc(Cl)cc2)nc2cnc(OC)nc21	>57	-4%
O=c1c2ccccc2nc2n1CCCCN2	>57	/
Cc1cc(NC(=O)CCC(=O)N(c2ccc(F)cc2)C(C(=O)NC2CCCC2)c2ccncc2)no1 (stereo not given)	>57	7%
COc1ccccc1CNc1ncnc2ccc(-c3cccc(NS(C)(=O)=O)c3)cc12	>57	?
CCC(=O)N1CCc2cc(S(=O)(=O)NCCCN3CCN(Cc4ccccc4)CC3)ccc21	>57	-16%
CC1CCCN(C(=O)CN2C(=O)c3ccccc3C2=O)C1 (stereo not given)	/	10%
Cn1cccc1Cc1nnc(SCC(=O)NC2CCCCC2)n1-c1ccc(F)cc1	>57	-6%
CC=O	/	1%

# Record cards, as listed above. Order of values: SmPrx2 inh, LT uptake inh
# Entry for COc1ccccc1CNc1ncnc2ccc(-c3cccc(NS(C)(=O)=O)c3)cc12 = >57, ?
# Entry for Cc1cc(C)n(-c2ccc(C(=O)C(C#N)c3nc4ccccc4n3C)cc2)n1 (stereo not given) = >57, ?
# Entry for COCCn1c(=O)c(-c2ccc(Cl)cc2)nc2cnc(OC)nc21 = >57, -4%
# Entry for Cc1cc(NC(=O)CCC(=O)N(c2ccc(F)cc2)C(C(=O)NC2CCCC2)c2ccncc2)no1 (stereo not given) = >57, 7%
# Entry for Cc1cccc(OCC2=NS(=O)(=O)c3ccccc3N2)c1 = >57, ?
